MARV entry inh: qHTS for inhibitors of binding or entry into cells for Marburg Virus; Marburg virus pseudotyped entry inhibition, cell reporter; control for the full effect not named in the record; about a third of the inactives were read at about 46 µM; 300,000 tested, 1.8% active; Potency, µM (titrated, usually from 37.8 µM), for inactives: top-dose activity change, negative = inhibition, hits mostly inhibitors; active = well fitted inhibition curve with a large enough effect; inconclusive = small, poorly fitted or top-dose-only effect, or effect the other way; inactive = flat fitted curve, though single readings scatter; tested in HEK293 cells; about a fifth of its hits are not listed in these tables; also: % is scaled to controls: 0 for no effect and ±100 for the full control effect; luciferase read-out
NS1 inh: qHTS Assay for Inhibitors of Influenza NS1 Protein Function; Potency, µM (doses to about 46.1 µM), without a hit: at the highest dose activity, positive = more growth; S. cerevisiae slowed by influenza A NS1, growth recovery by OD600; AID 2326, 2010; 270,000 tested, 0.4% active; active means well fitted rising curve with a large enough effect; inconclusive means small, poorly fitted or top-dose-only effect; inactive means no such curve, though single readings can be large or run the other way; also: nearly all actives have a fitted effect of over 50% in size
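A cell-based growth assay was used: compounds that relieve NS1-induced slow growth of budding yeast raise OD600. Assay medium was yeast nitrogen base with ammonium sulphate and -URA supplement, pH 6.0, with 2% galactose.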
SARS PLP yeast: qHTS of Yeast-based Assay for SARS-CoV PLP; Potency, µM (highest dose often 32.9 µM), without a hit: top-dose activity, positive = growth rescue; S. cerevisiae expressing SARS-CoV PLpro, growth rescue; control for the full effect not named in the record; 330,000 tested, 0.19% active; active means well fitted rising curve with a large enough effect; inconclusive means small, poorly fitted or top-dose-only effect; inactive means no such curve, though single readings can be large or run the other way; also: 0% is about no effect; nearly all actives have a fitted effect of over 55% in size; growth read by luminescence after 48 h
Cruzain inh noDet: qHTS Assay for Promiscuous and Specific Inhibitors of Cruzain (without detergent). 200,000 tested, 2.3% active. Potency, µM, without a hit: max response, negative = inhibition, usual class: inhibitors. Cruzipain (Trypanosoma cruzi), P25779. purified cruzain, Z-FR-AMC fluorescence, no detergent. AID 1476, 2009;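 also: plate controls were enzyme without inhibitor for no effect and buffer without enzyme for full effect; nearly all actives have a fitted effect of over 40% in size; top concentration of the series not given in the record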
Target sequence (P25779 123-467 limits assumed): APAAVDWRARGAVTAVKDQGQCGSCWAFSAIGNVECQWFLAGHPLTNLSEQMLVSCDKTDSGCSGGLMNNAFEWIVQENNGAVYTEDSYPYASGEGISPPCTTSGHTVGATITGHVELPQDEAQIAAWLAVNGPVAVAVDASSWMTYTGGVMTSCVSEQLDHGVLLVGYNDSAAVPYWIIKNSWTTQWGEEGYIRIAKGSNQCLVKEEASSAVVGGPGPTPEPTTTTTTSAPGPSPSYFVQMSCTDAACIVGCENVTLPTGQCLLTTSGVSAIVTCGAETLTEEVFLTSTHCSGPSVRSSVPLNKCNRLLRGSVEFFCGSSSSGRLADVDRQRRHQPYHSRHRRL
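Detergent-free condition (0.00005% Triton X-100) in acetate buffer pH 5.5 with DTT. 1.5 nM enzyme and compound were pre-mixed 15 min, then 2 uM Z-FR-AMC substrate added; reaction progress from fluorescence change between first and third reads (60 s).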
Lassa entry inh: qHTS for Inhibitors of binding or entry into cells for Lassa Virus; Lassa virus pseudotype entry inhibition, cell reporter; control for the full effect not named in the record; Potency, µM (series often up to 37.9 µM), inactives show at the top dose activity change, negative = inhibition, most hits filed as inhibitors; 300,000 tested, 1.2% active; AID 540256, 2011; active means well fitted inhibition curve with a large enough effect; inconclusive means small, poorly fitted or top-dose-only effect, or effect the other way; inactive means flat fitted curve, though single readings scatter; tested in HEK293 cells; also: % is scaled to controls: 0 for no effect and ±100 for the full control effect; nearly all actives have a fitted effect of over 50% in size; luciferase read-out
Cruzain inh Det: qHTS Assay for Promiscuous and Specific Inhibitors of Cruzain (with detergent) | Potency, µM, inactives show max response, negative = inhibition, hits mostly inhibitors | purified cruzain, Z-FR-AMC fluorescence, 0.01% Triton | Cruzipain (Trypanosoma cruzi), P25779 | AID 1478, 2009 | 200,000 tested, 0.43% active;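 also: plate controls were neutral wells for no effect and buffer without enzyme for full effect; nearly all actives have a fitted effect of over 40% in size; top concentration of the series not given in the record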
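Detergent-containing run (0.01% Triton X-100) in acetate buffer pH 5.5 with 5 mM DTT: enzyme at 1.5 nM final, 15 min compound preincubation at room temperature, then 2 uM Z-FR-AMC substrate. Activity taken as 60 s fluorescence increase at 360/450 nm.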
RE007 growth inh: qHTS Assay for Inhibitors of the HIV-1 protein Vpr. S. pombe RE007 Vpr strain, BacTiter-Glo ATP luminescence, 24 h; control for the full effect not named in the record. Potency, µM (highest dose often 92.2 µM), for inactives: at the top dose activity change, negative = less growth. 360,000 tested, 0.21% active. AID 651644, 2012; active = well fitted falling curve with a large enough effect; inconclusive = small, poorly fitted or top-dose-only effect; inactive = no such curve, though single readings can be large or run the other way;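 also: % is scaled to controls: 0 for no effect and ±100 for the full control effect; nearly all actives have a fitted effect of over 50% in size; the assay follows cell death caused by Vpr and the record does not say whether a fall means rescue or toxicity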
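Fission yeast strain RE007, carrying one chromosomally integrated HIV-1 vpr copy, was seeded at OD 0.01 in PMG+AL medium with 23 nL pinned compound. After 24 h at 30 °C and 99% humidity, viability was read by BacTiter-Glo luminescence.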
StopGo reporter: High Throughput Screening for Foot and Mouth Disease Virus Antivirals | human cells with a luciferase reporter of 2A StopGo recoding; control for the full effect not named in the record | Potency, µM (highest dose often 57.9 µM), for inactives: at the top dose signal change, negative = less light | 410,000 tested, 1.2% active; active = well fitted falling curve with a large enough effect; inconclusive = small, poorly fitted or top-dose-only effect; inactive = no such curve, though single readings can be large or run the other way; tested in HEK293T cells; also: % is scaled to controls: 0 for no effect and ±100 for the full control effect; nearly all actives have a fitted effect of over 45% in size; luciferase light after 4 h
Numbers without * were called inactive; ? = inconclusive; / = not tested or not shown; & = joins results of further samples; [ ] = dose if it differs, or a comment. Unless noted, calls follow the shape of the dose curve; as a rule, active = well fitted curve in the direction sought with a large enough effect; inconclusive = small, poorly fitted or top-dose-only effect, or another doubt; inactive = no such curve, though single readings can be large; an effect the other way counts as inactive or inconclusive. Potency is read from the fitted curve at half-maximal effect.

SMILES	MARV entry inh	NS1 inh	SARS PLP yeast	Cruzain inh noDet	Lassa entry inh	Cruzain inh Det	RE007 growth inh	StopGo reporter
CC(Oc1ccccc1)C(=O)Nc1c(C(=O)Nc2cccc(F)c2)oc2ccccc12 (centres undefined)	?	/	/	-27%	2%[46.1 µM]	-2.9%	/	-6%
COc1ccc(Cl)cc1NC(=O)CCN1CCN(Cc2ccccc2)CC1	/	2%	-1%	/	/	/	-6%	-22%
COc1ccccc1N1CCN(S(=O)(=O)c2ccc(Br)s2)CC1	-8%	1%	-8%	-13%	23%	-5.1%	18%	-23%
CCOC(=O)c1ccc(NC(=O)CSc2nnc(CNC(=O)c3c(F)cccc3Cl)o2)cc1	?	-7%	/	9%	2%	-4.4%	-2%	-22%
O=C1CN(S(=O)(=O)c2ccccc2C(F)(F)F)CCN1	-1%[46.1 µM]	0%	2%	/	-12%	/	15%	-10%
CCOCCCNC(=O)C1CCC(CNS(=O)(=O)c2ccc(NC(C)=O)cc2)CC1 (centres undefined)	/	/	/	-8%	3%[46.1 µM]	2.0%	/	-3%
Cc1ccc(C)c(N2CCN(C(=O)c3c4c(nc5ccccc35)C(=O)N(C3CCCCC3)C4)CC2)c1	/	/	/	-16%	19%[46.1 µM]	-1.0%	/	-22%
COc1ccc(N)c2c1OCCC2=O	5%	3%	-13%	12%	9%	-0.6%	-1%	-8%
COc1c(Cl)cc(Cl)cc1C(=O)Nc1ccc(CN2CCOCC2)cc1	/	-8%	-4%	/	/	/	-4%	-22%
Cc1ccc(-n2cc3ccc([N+](=O)[O-])cc3n2)cc1	?	0%	-20%	-4%	?	-6.5%	-16%	-32%
N#CCCn1c(SCC(=O)NCC2CCCO2)nc2ccccc21 (centres undefined)	3%[46.1 µM]	0%	1%	10%	9%	1.0%	18%	62%[activator]
Cc1cc(C)c(C)c(/C=C(/C#N)C(N)=S)c1C	-11%	8%	5%	6%	-3%	-8.5%	-1%	?
O=C(CNS(=O)(=O)c1ccccc1)Nc1ccccc1Br	16%	3%	0%	/	-7%	/	2%	11%
CC(=O)Nc1ccc(NC(=O)[C@H](C)NC(=O)c2ccco2)cc1	6%[46.1 µM]	0%	-1%	/	23%	/	8%	-13%
Cc1nnc(SCC(=O)NC2CCCCC2C)s1 (centres undefined)	/	1%	1%	/	/	/	-1%	5%
CCOC(=O)C1=C(O)/C(=C\c2ccc(O)c(OCC)c2)N=C1C	/	2%	-1%	/	/	/	-10%	-4%
Cc1[nH]n(-c2cccc3ccccc23)c(=O)c1C=Nc1ccc2[nH]c(=O)[nH]c2c1	?	7%	2%	13%	10%	-4.2%	0%	-18%
CCC(=O)N1c2ccc(S(=O)(=O)NCc3cccc(OC)c3)cc2CC1C (centres undefined)	-14%[46.1 µM]	/	/	4%	-10%[46.1 µM]	-2.5%	/	-6%
COc1ccc(CC(=O)Oc2ccc(C)cc2C)cc1	/	-18%	2%	/	/	/	-5%	-18%
Clc1ccc(COn2c(-c3ccccc3)nc3ccccc32)cc1	-13%	-87%	-19%	-1%	?	-2.8%	-7%	-27%
C[C@]12CCC3C(CC[C@H]4CC(O)CC[C@]34C)C1CC/C2=N/NC(=O)c1ccncc1 (some centres undefined)	?	0%	1%	/	?	/	7%	-16%
Cc1ccc(NC(=O)NCc2cccnc2)cc1	21%[46.1 µM]	6%	0%	/	14%[46.1 µM]	/	2%	31%[activator]
Cc1ccc2nc(C)c(Cl)c(=O)n2c1	15%	-1%	0%	-15%	8%	-5.1%	-5%	-11%
Cc1cc(OCC(=O)NCCc2ccc(Cl)cc2)c2c(C)cc(=O)oc2c1	-12%[46.1 µM]	-16%	2%	/	?	/	3%	20%
CC(C)CNC(=O)c1c(N)n(Cc2ccc3c(c2)OCO3)c2nc3ccccc3nc12	?	23%	-12%	-23%	-4%	-0.7%	7%	-17%
COc1ccc(-c2nc3ccc(Cl)cn3c2Nc2ccc(C)cc2)cc1	27%[46.1 µM]	/	/	-10%	18%[46.1 µM]	-2.4%	/	8%
CC(C)n1ncc(N2CCOCC2)c(Cl)c1=O	/	7%	0%	/	/	/	4%	-12%
CCN1C(=O)/C(=C/c2ccc3c(c2)CCN3CCCCl)C(=O)NC1=S	-25%	-18%	-11%	3%	-18%	-22%	?	?
CC(C)NC(=O)/C(C#N)=C/c1ccc2c(c1)OCCO2	11%	-3%	-8%	1%	19%	1.9%	-7%	43%[activator]
CCCn1c(C(C)Nc2nc(-c3cccc(Br)c3)cs2)nc2ccccc21 (centres undefined)	/	1%	-3%	/	/	/	2%	-13%
Cc1cc2c(cc(C(=O)OCC(=O)NCc3ccco3)n2C)s1	-27%	-4%	-5%	3%	?	1.9%	4%	19%
Cc1ccnc(NC(=O)CNC(=O)c2cccs2)c1	-1%[46.1 µM]	/	-3%	/	10%	/	-9%	4%
Cc1nc2nc(COc3ccccc3)[nH]n2c(=O)c1C	?	-13%	2%	-6%	2%	-0.7%	9%	10%
COc1ccc(C)cc1NC(=O)C(OC(=O)c1cnc(C)cn1)c1ccccc1 (centres undefined)	13%	/	0%	/	-4%	/	5%	?
CCC(Cn1nnc2ccccc2c1=O)NC(=O)Nc1ccc(C)cc1C (centres undefined)	-11%[46.1 µM]	/	/	-2%	0%[46.1 µM]	-2.3%	/	-8%
COc1cc(C(=O)NC(c2ccccc2)c2ccccc2)cc(Cl)c1OC	0%	11%	23%	-9%	-7%	-5.3%	-18%	-30%
COc1ccccc1-n1c(SCC(=O)N2CCOCC2)nc2ccccc2c1=O	7%[46.1 µM]	-1%	-2%	/	-2%	/	33%	-17%
Cc1ccc(Sc2ncccc2/C=N/O)cc1	?	-1%	-1%	/	13%[46.1 µM]	/	?	11%
CCOCCCNC(=O)C1CCN(C(=O)N(C)C)CC1	4%	-12%	1%	3%	3%	0.5%	-15%	/
O=C(CCC(=O)N1CCC2(CC1)OCCO2)Nc1nnc(C2CCCCC2)s1	?	2%	0%	/	-7%[46.1 µM]	/	21%	-5%
C/C(=N\NC(=O)c1ccc(O)cc1)c1ccc(N2CCOCC2)cc1	16%[46.1 µM]	2%	-3%	/	-6%	/	15%	21%
NC(=O)C1CCN(C(=O)CN2CCN(c3cccc(C(F)(F)F)c3)CC2)CC1	1%	-4%	-3%	5%	-2%	2.3%	-15%	0%
CCc1cc2c3c(c(=O)oc2cc1OC)CCCC3	11%[46.1 µM]	-15%	-5%	-1%	-17%	-8.2%	-20%	?
Cc1ccc(F)cc1NC(=O)CSc1nc(Nc2ccccc2)nc(N2CCOCC2)n1	?	15%	0%	/	?	/	7%	-28%
COP(=O)(c1ccc(N(C)C)cc1)C(O)c1ccccc1 (centres undefined)	8%	2%	0%	/	12%	/	0%	8%
Cc1ccc(Oc2ccc(Oc3ccc(C)cc3)nn2)cc1	-5%	-4%	-9%	-26%	3%	1.8%	11%	22%
N#CCSc1nc(N)c(C#N)c(C2CCCCC2)c1C#N	-2%	12%	17%	-5%	-19%	-12%	21%	?
CC(C)NCCCCOc1cccc(Br)c1	?	29%	1%	-6%	?	0.6%	-11%	-7%
CCOC(=O)c1c(C)oc2c1c(C(c1cccnc1)N1CCN(C)CC1)c(O)c1ccccc12 (centres undefined)	-1%	-70%	-12%	16%	/	-9.4%	/	/
CCOC(=O)c1c(C)[nH]c(C(=O)COC(=O)c2oc3ccccc3c2C)c1C	?	-6%	8%	-10%	0%	-0.9%	7%	4%

Continuation:
SMILES	MARV entry inh	NS1 inh	SARS PLP yeast	Cruzain inh noDet	Lassa entry inh	Cruzain inh Det	RE007 growth inh	StopGo reporter
CCc1ccc(OCC(=O)Nc2cc3oc4ccccc4c3cc2OC)cc1	-23%[46.1 µM]	/	/	1%	-1%[46.1 µM]	0.3%	/	?
Cc1sc(N/N=C/C=C/c2ccccc2)nc1-c1ccccc1	11%	-2%	13µM*	7.9µM*	?	-0.4%	-10%	-1%
COc1ccc(N(CC(=O)NCc2ccc(C)cc2)S(=O)(=O)c2c(C)[nH]c(=O)[nH]c2=O)cc1	8%[46.1 µM]	-10%	5%	0%	12%[46.1 µM]	4.7%	-5%	-13%&-2%
COc1ccccc1/C=C/C=N/N1CCN(c2ccccn2)CC1	-17%	-8%	-1%	-2%	-14%	5.8%	-29%	?
O=C(NCc1ccco1)c1cc(-c2cccnc2)nc2ccccc12	?	-2%	-6%	-1%	3%	-2.2%	6%	-18%
CCCCOC(=O)Nc1nc2ccc(OC)cc2s1	0%	11%	1%	?	12%	0.5%	-28%	/
CN1CCN(C(=S)C(=O)Nc2ccc(Br)cc2)CC1	24%[46.1 µM]	2%	0%	/	0%	/	6%	4%
COc1ccc(C(=O)Cn2cnc3ccccc3c2=O)cc1	5%[46.1 µM]	-44%	-21%	/	3%	/	20%	33%[activator]
Cc1cc(C)c2oc(C(=O)N(Cc3ccc(F)cc3)C3CCS(=O)(=O)C3)cc(=O)c2c1 (centres undefined)	12%&12%[46.1 µM]	-15%	-3%	12%	1%[46.1 µM]	-1.4%	2%	-11%&-18%
CCCc1nn(C)c(C(=O)Nc2ccc(C(C)(C)C)cc2)c1Cl	21%	-4%	-48%	9%	-16%	-5.9%	-6%	-28%
Cc1c(C(N)=O)sc2ncn(CC(=O)OC(C)C)c(=O)c12	15%[46.1 µM]	-4%	-1%	-4%	-5%	6.6%	-9%	0%
NCCc1nnc(SCc2ccc(Cl)cc2)o1	-3%[46.1 µM]	/	/	-1%	18%[46.1 µM]	0.8%	/	0%
CC(=O)Nc1ccc2c(c1)nc(CCN1CCN(c3ccccn3)CC1)n2C	11%	4%	1%	/	14%	/	8%	-9%
O=C(NCCCN1CCCC1=O)c1cc(S(=O)(=O)N2CCOCC2)c(Cl)cc1Cl	12%[46.1 µM]	/	0%	/	11%	/	6%	-13%
COc1ccc2nc(NC(=O)Nc3ccccc3OC)sc2c1	?	6%	3%	/	/	/	-5%	-18%

Screening results deposited in PubChem by National Center for Advancing Translational Sciences (NCATS).
